Screens: PubChem, several laboratories
RecA intein inh – inhibitors of M. tuberculosis RecA intein splicing; P9WHJ3; cell-free RecA intein splicing, fluorescence; inhibition, %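 (about 9 µM by stock and volumes)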; 0.75% of 290,000 active; in the data active = inhibition above about 30%; inconclusive = no clear call, values can overlap the other calls;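 note: 0% = vehicle wells and 100% = reference inhibitor control wells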
Target sequence (P9WHJ3 whole entry, looked up): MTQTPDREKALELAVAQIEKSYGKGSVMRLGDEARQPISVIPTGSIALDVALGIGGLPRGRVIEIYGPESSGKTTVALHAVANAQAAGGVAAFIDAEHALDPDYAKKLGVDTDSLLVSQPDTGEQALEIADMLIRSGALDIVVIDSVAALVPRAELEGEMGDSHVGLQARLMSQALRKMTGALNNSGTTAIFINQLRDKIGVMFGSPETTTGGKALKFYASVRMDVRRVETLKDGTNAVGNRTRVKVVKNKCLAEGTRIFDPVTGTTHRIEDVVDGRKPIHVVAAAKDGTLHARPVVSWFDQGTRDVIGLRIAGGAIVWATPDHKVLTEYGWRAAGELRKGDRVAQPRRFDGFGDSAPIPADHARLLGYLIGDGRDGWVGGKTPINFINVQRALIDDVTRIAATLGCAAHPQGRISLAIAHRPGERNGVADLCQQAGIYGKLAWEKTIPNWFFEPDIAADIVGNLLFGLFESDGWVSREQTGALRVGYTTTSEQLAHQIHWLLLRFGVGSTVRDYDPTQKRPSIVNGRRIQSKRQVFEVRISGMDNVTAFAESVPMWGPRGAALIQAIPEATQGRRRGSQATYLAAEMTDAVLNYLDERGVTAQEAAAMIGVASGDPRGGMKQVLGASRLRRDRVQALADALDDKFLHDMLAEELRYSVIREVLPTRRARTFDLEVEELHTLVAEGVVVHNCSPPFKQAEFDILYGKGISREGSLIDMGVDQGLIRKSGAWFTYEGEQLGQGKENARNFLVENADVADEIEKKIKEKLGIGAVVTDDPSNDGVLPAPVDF
Mtb bLac sens – beta-lactam sensitization of Mtb H37Rv | M. tuberculosis H37Rv growth with meropenem, percent inhibition; hits of this screen are not shown here | inhibition, % at 25 µM | 0.27% of 330,000 active;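 active = about 74% or more and at least 40 points above the plate without the antibiotic, then above 30% in a dose series; inconclusive = first-round hits that could not be retested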;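 note: growth measured after seven days incubation then overnight dye step; 0% = bacteria only wells and 100% = bacteria with antibiotic; twin plates without the antibiotic show which effects depend on it; some results filed as inactive read as strong as hits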
YopH PTP inh – blocks Yersinia enterocolitica YopH tyrosine phosphatase | AID 898 | fluorescence Ex485/Em525 | 0.16% of 140,000 active | inhibition, %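 (about 10 µM by stock and volumes)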;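 active = inhibition of 50% or more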;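 note: controls were vehicle for no effect and minimum signal wells for full effect; inactives centre near -20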
Mtb H37Rv – M. tuberculosis H37Rv growth inhibitors, H37Rv strain (AID 1626); 0.95% of 220,000 active; one-dose inhibition, % at 10 µM; IC50 in µM for titrated hits; M. tuberculosis H37Rv growth inhibition; higher % means a stronger effect;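 active = confirmed in a dose series; inconclusive = inhibition above 80% but not taken into the dose series; inactive = below 80% or under 30% at every dose of the series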;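 note: bacteria incubated seven days before Alamar blue readout; 0% = bacteria only wells and 100% = bacteria with antibiotic wells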
Arbovirus inh – antivirals against arbovirus infection. arbovirus infection cell-based antiviral screen. inhibition, % at 10 µM. 0.37% of 200,000 active. AID 1251;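 active = inhibition from about 30%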;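 note: bluetongue infection of BSR cells; cell survival read as ATP light after 72 h; 0% = infected wells without compound and 100% = uninfected wells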
Arbovirus inh repeat – further read-out of Arbovirus inh, marked with its call; inhibition, %; measured here: 10K subset replicate screen; many hits read low in the repeat;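 first of two repeat runs on a subset; 0% = infected and 100% = uninfected wells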
Active calls of the source: *; u = inconclusive; x = not tested or not shown. These rows are one share of the data (hit frequency here may not be typical).

SMILES	RecA intein inh	Mtb bLac sens	YopH PTP inh	Mtb H37Rv	Arbovirus inh	others
O=C(CSc1nc(N2CCCCC2)nc(N2CCCCC2)n1)N1CCN(c2ccccc2)CC1	5.3	x	-6.3	12.9%	-18.4
CN(CP(=O)(O)C(O)c1ccccc1)S(C)(=O)=O (stereo not given)	-7.6	-5.5	-27.2	-6.7%	-5.0	Arbovirus inh repeat=5.0
CC1CN(C(=O)c2cc(S(=O)(=O)N3CCCC3)c(Cl)cc2Cl)CC(C)O1 (stereo not given)	1.4	0.1	-10.8	1.0%	-0.3
COc1ccccc1OCCOCCN1CCCC1	4.5	1.5	x	x	x
O=C(CN1CCC(C(=O)c2ccc(Cl)cc2)CC1)Nc1ccc2c(c1)OCCO2	5.9	78.4	-31.3	6.9%	-7.5
CS(=O)(=O)N(CC(=O)N/N=C/c1cc2c(cc1Br)OCO2)c1ccccc1Br	0.0	-0.3	-43.6	x	-12.2
O=C(NCc1ccccc1)C1=C[C@H](C2CC2)C[C@H](OCc2ccc(CO)cc2)O1	3.0	-1.9	x	-2.0%	-2.2
O=C(CNc1ccc(Br)cc1)c1ccc(O)cc1	8.7	1.6	x	-5.2%	-22.3
Cc1cc(C)cc(OCC(=O)Nc2ccc(N3CCCCC3)cc2)c1	-2.1	-5.1	x	x	x
O=[N+]([O-])c1ccc(Cl)c(S(=O)(=O)Nc2ccc(-c3ccc(N4CCOCC4)nn3)cc2)c1	0.5	-11.3	x	x	x
CNS(=O)(=O)c1cn(CC(=O)NCc2cccc(OC)c2)cc1S(=O)(=O)NC	1.3	-2.4	x	x	x
O=C(Nc1ccc(F)cc1)c1csc(Cc2ccccc2)n1	2.3	-2.9	x	2.5%	-6.3
COCCN(CC1CCCN(C2Cc3ccccc3C2)C1)C(=O)CCC(N)=O (stereo not given)	2.2	-1.2	x	x	x
COc1cc(NC(=O)c2ccccn2)cc(OC)c1OC	-0.3	-2.1	x	-9.3%	2.3
Cc1c(C)n(CCCN(C)C)c2ncnc(Nc3ccccc3)c12	-1.0	-1.1	x	x	x
COc1ccc(NC(=S)NNC(=O)c2cccs2)cc1	1.4	2.8	-37.5	5.9%	10.3
Cc1ccc(NC(=O)CSc2nnnn2-c2ccc3c(c2)OCO3)cc1C	0.0	-11.2	10.5	0.9%	-2.7
O=C(COc1ccc(Cl)cc1)NCc1ccc(F)cc1	0.1	-0.2	x	x	x
C=CCN=C1S/C(=C/c2ccc([N+](=O)[O-])cc2)C(=O)N1CC=C	3.3	-2.3	x	-5.3%	x
COCCn1c(C)c(C)c(S(=O)(=O)c2ccccc2)c1N	-1.4	7.4	x	x	x
COCCNC(=O)c1ccc(Cl)c(S(=O)(=O)Nc2cccc(C)c2C)c1	-0.5	-6.7	x	x	x
Cc1cccn2c(=O)c(/C=C(\C#N)C(=O)NCc3ccco3)c(N3CCC(C(N)=O)CC3)nc12	-5.3	4.0	-29.9	-9.9%	-9.8
Cc1ccc(-n2nnnc2/C=C\Nc2cc(C)on2)cc1	1.3	-0.7	-24.0	-8.9%	4.8
COc1ccc(N2CC(NS(=O)(=O)c3cccnc3)CC2=O)cc1 (stereo not given)	1.1	-6.1	x	x	x
CCc1c(C(=O)N/N=C/c2ccsc2)csc1C	2.6	-3.8	-14.2	-6.8%	-4.7
C/C=C/c1ccc(Oc2nnnn2-c2ccc(C(=O)O)cc2)c(OC)c1	1.8	0.3	-19.4	-10.3%	6.3
OCC[C@@H]1C[C@H](O)[C@@H](O)[C@]2(OCCc3ccccc32)O1	-1.5	-3.0	x	x	x
C=CCSc1nc(-c2ccccc2)c(C#N)c(=O)[nH]1	3.5	u	-49.5	2.4%	10.3
Cc1noc(C)c1COc1ccc(C(=O)N2CCCC(C(F)(F)F)C2)cc1 (stereo not given)	-0.2	-10.3	x	x	x
CCCCN(C(=O)Cc1ccc(S(=O)(=O)N2CCOCC2)s1)c1c(N)n(CCCC)c(=O)[nH]c1=O	-1.4	-12.0	x	x	x

The last 5 compounds of the section before are carried over, then new ones follow:
SMILES	RecA intein inh	Mtb bLac sens	YopH PTP inh	Mtb H37Rv	Arbovirus inh	others
C/C=C/c1ccc(Oc2nnnn2-c2ccc(C(=O)O)cc2)c(OC)c1	1.8	0.3	-19.4	-10.3%	6.3
OCC[C@@H]1C[C@H](O)[C@@H](O)[C@]2(OCCc3ccccc32)O1	-1.5	-3.0	x	x	x
C=CCSc1nc(-c2ccccc2)c(C#N)c(=O)[nH]1	3.5	u	-49.5	2.4%	10.3
Cc1noc(C)c1COc1ccc(C(=O)N2CCCC(C(F)(F)F)C2)cc1 (stereo not given)	-0.2	-10.3	x	x	x
CCCCN(C(=O)Cc1ccc(S(=O)(=O)N2CCOCC2)s1)c1c(N)n(CCCC)c(=O)[nH]c1=O	-1.4	-12.0	x	x	x
CNC(=S)N(CCc1c(C)[nH]c2ccc(Cl)cc12)Cc1cccs1	14.9	63.0	x	61.4%	-28.7
CCc1ccc(/C=N\n2cnnc2)cc1	0.4	-13.4	x	-4.2%	x
Cc1c(C(=O)NCc2ccccn2)oc2ccc(Br)cc12	9.0	-7.1	x	x	x
Cc1ccc2[nH]c(-c3cccc(N)c3)cc2c1	2.1	11.4	-48.6	1.7%	-3.8
CCOCCCNS(=O)(=O)c1ccc(-n2cnnn2)c(OC)c1	5.9	-4.9	-10.7	-10.9%	2.0
Cc1ccc(NC(=O)C2OCCc3ccccc32)cc1Cl (stereo not given)	8.4	-3.1	x	-4.4%	9.7
Cc1ccc2oc(C(=O)N3CCN(c4cccc(C)n4)CC3)c(C)c2c1	6.4	-0.9	x	x	x
Fc1ccccc1NC(=S)NCCc1ccccc1	2.0	-5.3	-12.6	10.2%	12.4
COc1cccc(CN(C)Cc2nc(C3CC3)no2)c1	1.3	2.2	x	1.3%	3.3
Cc1c(NC(=S)SCc2ccccc2)c(=O)n(-c2ccccc2)n1C	-2.2	1.0	x	-0.4%	-8.4
CCn1c(SCC(=O)NC2CCCC2)nnc1-c1cccnc1	0.0	-1.9	x	x	x
Cc1sc2nc(C(C)Sc3n[nH]c(N)n3)[nH]c(=O)c2c1C (stereo not given)	-2.9	11.3	x	-3.3%	4.0
COc1ccc(-c2cnn3c4c(c(C)nc23)CCN4C(C)C)cc1OC	-2.7	6.3	-4.7	3.6%	4.8
CC1CN(C(=O)CCC(=O)NCc2ccc(Cl)cc2)c2ccccc2S1 (stereo not given)	0.2	u	x	x	x
Cc1ccccc1NC(=O)c1ccccc1NS(=O)(=O)c1cccc2cccnc12	-0.8	-16.3	-39.0	7.1%	5.5
CN(CC(=O)NCc1ccccn1)S(=O)(=O)c1ccc(Br)cc1	0.5	0.2	x	3.5%	12.0
CSc1nnc([C@@H](N)Cc2ccccc2)o1	-4.7	-17.1	4.0	-1.8%	4.0
CCn1c(SCC(=O)N2CCC(C(N)=O)(N3CCCCC3)CC2)nnc1-c1ccccc1	0.7	-14.7	-21.0	-7.8%	10.0
COc1ccc(C(=O)C2CCCN(Cc3ccc4nonc4c3)C2)cc1F (stereo not given)	3.6	11.8	x	1.9%	0.7
O=C(NCCc1ccccc1)C1CCC(CNc2c(N3CCCCC3)c(=O)c2=O)CC1 (stereo not given)	2.0	-6.0	-10.3	6.2%	5.1
O=C1CC(Nc2ccc(N3CCOCC3)cc2)C(=O)N1C1CCCCC1 (stereo not given)	-2.2	x	36.0	7.5%	-8.6
COc1ccc(CC(=O)NCc2nnc(SCc3ccc([N+](=O)[O-])cc3)n2C)cc1	-1.9	-9.7	x	5.5%	5.5
NC1=NC(=O)C2(COC(c3cccnc3)OC2)S1 (stereo not given)	1.6	-0.5	x	5.1%	19.1
CCc1ccc(N2CC(C(=O)N3CCCC3)CC2=O)cc1 (stereo not given)	2.9	1.7	x	x	x
Cc1cccc(CN2CCOCCS2(=O)=O)c1	-2.1	-2.0	x	x	x
NS(=O)(=O)c1cccc(NC(=O)COC(=O)C2(c3cccc(F)c3)CCCC2)c1	1.9	-2.4	-1.9	4.5%	11.9
CCc1nn(CC(=O)N(C)C2CCCCC2)c(=O)c2cc3cc(C)ccc3n12	-1.1	4.6	x	x	x
COc1ccc(Cn2c(C3CC3)nc3ccc(NC(=O)C4CC4)cc3c2=O)cc1	-1.2	-1.1	-16.9	5.4%	4.2
CN1CCN(c2nc(NCCOC34CC5CC(CC(C5)C3)C4)nc(OCC(F)(F)F)n2)CC1	3.1	-8.6	-21.2	x	-27.8
O=C(/C=C/c1ccco1)Nc1ccc(-c2nc3ccccc3[nH]2)cc1	6.5	-5.2	-13.0	5.0%	-7.8
Cc1ccc(SCC(=O)N2CCC(C(N)=O)CC2)cc1	1.1	-11.0	x	2.1%	1.1
COc1ccccc1-n1c(=O)[nH]c2c(C(N)=O)nc(C3CCCCC3)nc21	3.7	-1.5	-49.0	9.9%	5.9	Arbovirus inh repeat=-0.6
COc1ccc(OC)c(Nc2nc(-c3ccccc3O)nc3ccccc23)c1	-2.8	-3.2	x	1.3%	5.0
c1ccc(-n2nnnc2SCc2cccc3nsnc23)cc1	2.8	-2.9	-9.6	6.3%	5.2
COc1cc(NC(=O)CCNC(=O)Cn2cnc3sc4c(c3c2=O)CCCC4)cc(OC)c1OC	4.3	11.6	x	x	x
CCOc1ccc(-n2c(=O)[nH]cc(C(=O)N3CCCc4ccccc43)c2=O)cc1	1.6	-2.8	-20.1	-5.3%	5.6
CCCCC(=O)Nc1ccc(NC(=O)c2cc(OC)c(OC)c(OC)c2)cn1	0.9	-5.2	-53.9	-5.6%	2.9
C/C(=N\Nc1ccc(C(F)(F)F)cc1[N+](=O)[O-])C(C)C	-0.8	-1.8	-16.5	-5.0%	1.9
Cc1ccccc1N(C(=O)CCC(=O)Nc1ccccn1)C(C(=O)NC(C)C)c1ccc(O)cc1 (stereo not given)	-1.4	x	-45.3	-4.1%	0.8
O=C(c1ccc(Cl)cc1)N(Cc1ccc(Br)cc1)N1C(=O)CCC1=O	-0.7	0.0	x	8.4%	-0.2
O=C(CCCOc1ccc(Cl)cc1Cl)N1CCC2(CC1)OCCO2	3.1	0.6	18.4	-3.5%	-1.6
CCN(CC(=O)Nc1ccc2c(c1)OCCO2)C(=O)c1cccc(OCC(C)C)c1	0.6	-10.8	x	x	x
Cc1cc(C(=O)COc2cccnc2[N+](=O)[O-])c(C)n1-c1ccccc1	-2.0	4.6	-23.2	-1.1%	-1.1
COc1ccc(N2CCC(CNC(=O)Nc3ccc(C)c(C)c3)C2)cc1 (stereo not given)	-4.2	3.2	-23.9	x	-9.0	Arbovirus inh repeat=-6.1
CCOC(=O)N1CCN(S(=O)(=O)c2ccc(C)cc2)C1c1ccc(OC)cc1 (stereo not given)	-0.8	6.4	-42.2	x	13.4
CCCCSc1nc2c(=O)[nH][nH]c(=O)c2n1Cc1ccccc1	2.4	-0.8	-17.1	6.3%	-0.8
COc1cc(OC)c(C2C(C(=O)O)c3ccccc3C(=O)N2C)cc1OC (stereo not given)	-0.9	-10.2	-16.3	-3.6%	5.9
O=C(CCCN1C(=O)c2ccccc2C1=O)NC1=NCCS1	-2.4	x	-33.8	-6.7%	-1.2
Cc1cccc(CSc2ncnc3ccccc23)c1	12.6	-3.4	x	3.6%	-2.5
COCC(=O)OCC(=O)Nc1ccccc1-c1ccccc1	1.5	2.0	x	-2.5%	-8.0

The listing continues:
SMILES	RecA intein inh	Mtb bLac sens	YopH PTP inh	Mtb H37Rv	Arbovirus inh	others
Cc1ccc(-n2cnc3c(sc4nccc(N(C)C)c43)c2=O)cc1	-5.6	-8.3	-28.9	3.1%	-4.5
COc1ccc(CNC(=O)CNC(=O)c2cccs2)c(OC)c1	-1.9	1.1	x	x	x
CC1(C)Cc2cccc(C(=O)Nc3ccncc3)c2O1	1.6	44.3	x	13.9%	x
CC(Oc1ccccc1)C(=O)Nc1ccc(S(=O)(=O)N2CCN(C)CC2)cc1 (stereo not given)	0.2	-1.8	x	x	x
CCOC(=O)C1(C)NC(c2cccs2)C2C(=O)N(c3ccc(C)cc3)C(=O)C21 (stereo not given)	-1.3	-9.9	x	-0.2%	18.2
O=C(Nc1cccc(-c2nc3ccccc3c(=O)o2)c1)c1ccccc1	-0.3	87.5	x	7.0%	10.1
CCOC(=O)c1c(C)[nH]c(C)c1C(=O)CSc1nncs1	-0.8	0.6	x	-0.5%	3.6
O=C(Cc1cccs1)NC1(C(=O)NC2CCCC2)CCCCC1	-1.5	3.7	-22.2	-11.6%	1.2
COC(=O)c1ccc(C2NC(=O)c3c(sc(C)c3C)N2)cc1 (stereo not given)	-8.6	15.8	x	-2.4%	x
COc1ccc(/C=C\C(=O)NCC(=O)N/N=C/c2cccc(OC)c2O)cc1	-2.0	0.9	x	x	x
